FGF22 binding: binders of human FGF22 protein, primary screen, FGF22 synaptogenesis inhibitor project, biophysical, thermal shift, single point; calls only at 9.99 µM; recombinant FGF22 thermal shift, SYPRO orange fluorescence; percent of sucrose octasulfate shift, DMSO zero; Fibroblast growth factor 22 (Homo sapiens), Q9HCT0; 340,000 tested, 1.5% active;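 active means melting point raised past a set limit in the mean and every replicate; three in four hits are not shown here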
Target sequence (Q9HCT0 whole entry, looked up): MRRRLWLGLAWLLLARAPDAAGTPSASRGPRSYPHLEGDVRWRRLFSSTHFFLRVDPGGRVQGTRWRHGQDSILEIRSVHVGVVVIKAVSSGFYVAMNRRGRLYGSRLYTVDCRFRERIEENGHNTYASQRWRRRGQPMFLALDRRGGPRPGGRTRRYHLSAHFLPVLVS
Ecoli rRNA inh: reduced GFP signal of wild-type E. coli, primary screen, bacterial rRNA inhibitor project, GFP/RFP fluorescence, OD600, single point; GFP signal change (wild-type ribosome), % (test concentration not listed); E. coli WT GFP vs humanized-ribosome RFP mutants, 24 h; hits give low values; DMSO median 0, no signal -100; 350,000 tested, 1.6% active;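 active means significant combined selectivity score with lowered wild-type GFP, culture density cut under 30%, mutant RFP and density less affected; inactive means any of these conditions unmet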; further: one replicate is shown; some compounds called inactive have numbers as strong as hits
Ecoli rRNA inh OD600: recorded beside Ecoli rRNA inh, whose call it bears; OD600 change, %; measured here: OD600 growth;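 optical density of the mix in the first replicate; 0 = DMSO median and -100 = no signal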
Ecoli rRNA inh RFP: recorded beside Ecoli rRNA inh, whose call it bears; RFP signal change, %; measured here: RFP humanized mutant strains;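 first replicate; 0 = DMSO median and -100 = no signal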
The depositor's hits bear a star; i = inactive.

A first look, 5 compounds:
SMILES	FGF22 binding	Ecoli rRNA inh	Ecoli rRNA inh OD600	Ecoli rRNA inh RFP
COc1cccc(-c2ccc3c(c2)[C@H]2[C@H](CCN2C(=O)c2cccc(F)c2)[C@H](CO)N3)c1	i	2	-14	25
C[C@@H]1CCCCO[C@@H](CN(C)S(=O)(=O)c2ccc(Cl)cc2)[C@H](C)CN([C@H](C)CO)C(=O)c2cc(NC(=O)NC3CCCCC3)ccc2O1	i	4	2	0.0
C[C@@H]1CN([C@H](C)CO)C(=O)c2cc(C3=CCCCC3)cnc2O[C@@H]1CN(C)C(=O)CN1CCOCC1	i	2	-2	0.0
C[C@@H]1CN([C@H](C)CO)C(=O)Cc2cc(NC(=O)CCCCCC(=O)Nc3ccccc3N)ccc2O[C@@H]1CN(C)CC1CCCCC1	i	7	2	2.6
O=C(C[C@H]1C=C[C@@H](NC(=O)c2ccncc2)[C@H](CO)O1)NCC1CCCCC1	i	2	5	-1.1

The listing (from the top)
SMILES	FGF22 binding	Ecoli rRNA inh	Ecoli rRNA inh OD600	Ecoli rRNA inh RFP
COc1cccc(-c2ccc3c(c2)[C@H]2[C@H](CCN2C(=O)c2cccc(F)c2)[C@H](CO)N3)c1	i	2	-14	25
C[C@@H]1CCCCO[C@@H](CN(C)S(=O)(=O)c2ccc(Cl)cc2)[C@H](C)CN([C@H](C)CO)C(=O)c2cc(NC(=O)NC3CCCCC3)ccc2O1	i	4	2	0.0
C[C@@H]1CN([C@H](C)CO)C(=O)c2cc(C3=CCCCC3)cnc2O[C@@H]1CN(C)C(=O)CN1CCOCC1	i	2	-2	0.0
C[C@@H]1CN([C@H](C)CO)C(=O)Cc2cc(NC(=O)CCCCCC(=O)Nc3ccccc3N)ccc2O[C@@H]1CN(C)CC1CCCCC1	i	7	2	2.6
O=C(C[C@H]1C=C[C@@H](NC(=O)c2ccncc2)[C@H](CO)O1)NCC1CCCCC1	i	2	5	-1.1
CCC(=O)N1[C@H](C(=O)Nc2ccccc2)[C@@H](CO)[C@@H]2Cn3c(ccc(-c4ccncc4)c3=O)[C@@H]21	i	2	4	-1.0
O=C(C[C@H]1C=C[C@@H](NC(=O)NC2CCCCC2)[C@H](CO)O1)NCc1ccccc1	i	1	-1	-2.9
Cc1ccc(S(=O)(=O)N(C)C[C@@H]2Oc3ccc(NC(=O)NC4CCCCC4)cc3CC(=O)N([C@H](C)CO)C[C@H]2C)cc1	i	-4	-8	2.2
O=C(C[C@@H]1CC[C@H]2[C@@H](COC[C@@H](O)CN2S(=O)(=O)c2cccc(Cl)c2)O1)Nc1ccccc1	i	-1	0	-2.6
O=C(NC1CCC1)[C@H]1[C@H](CO)[C@H]2Cn3c(ccc(-c4ccncc4)c3=O)[C@@H]1N2CC1CC1	i	3	9	-5.5
CN(C)C(=O)c1ccc(-c2ccc([C@@H]3[C@@H](C#N)N(C(=O)C4CCCCC4)[C@H]3CO)cc2)cc1	i	0	7	2.4
C[C@@H]1CN([C@@H](C)CO)C(=O)Cc2cc(NS(C)(=O)=O)ccc2O[C@H]1CN(C)Cc1ccccc1	i	0	4	-2.1
CC(C)CC#Cc1cnc2c(c1)C(=O)N([C@@H](C)CO)C[C@H](C)[C@@H](CN(C)Cc1cccc(F)c1)O2	i	-31	-43	-1.0
O=C(NC1CCCCC1)N[C@H]1CC[C@H](CC(=O)N2CCOCC2)O[C@H]1CO	i	2	-1	-0.9
O=C(C[C@H]1C[C@@H]2c3cc(NS(=O)(=O)c4ccccc4)ccc3O[C@@H]2[C@@H](CO)O1)NC1CCCCC1	i	-2	-13	-0.3
COCC(=O)N1[C@H](CO)[C@@H](c2ccccc2)[C@H]1CN(C)C(=O)c1ccncc1	i	2	13	1.7
C[C@@H]1CN([C@H](C)CO)C(=O)c2cccc(NC(=O)CCCCCC(=O)Nc3ccccc3N)c2O[C@@H]1CN(C)Cc1ccc(Oc2ccccc2)cc1	i	-3	-10	4.1
C[C@@H]1CN([C@@H](C)CO)C(=O)c2cc(NC(=O)Cn3cnnn3)ccc2O[C@@H]1CN(C)Cc1ccncc1	i	4	10	-1.6
C[C@H](CO)N1C[C@H](C)[C@H](CN(C)S(=O)(=O)c2cn(C)cn2)Oc2ccc(NC(=O)Nc3cccc4ccccc34)cc2C1=O	i	-1	-8	1.5
C[C@H](CO)N1C[C@H](C)[C@H](CN(C)C)Oc2cc(Br)ccc2S1(=O)=O	i	4	7	-4.9
COc1cccc(-c2ccc3c(c2)O[C@H](CN(C)Cc2ccncc2)[C@H](C)CN([C@@H](C)CO)S3(=O)=O)c1	i	-16	-25	-1.5
Cc1cc(C(=O)Nc2ccc3c(c2)C(=O)N(C)[C@H]2CC[C@@H](CC(=O)N[C@H](C)c4ccccc4)O[C@@H]2CO3)no1	i	0	6	-1.1
COCC(=O)N(C)C[C@@H]1Oc2cc(-c3ccc(OC)cc3)ccc2S(=O)(=O)N([C@H](C)CO)C[C@H]1C	i	-4	-14	-3.9
C[C@@H]1CN([C@H](C)CO)C(=O)c2cccc(NC(=O)Nc3ccc4c(c3)OCO4)c2O[C@H]1CN(C)C(=O)Nc1ccc2c(c1)OCO2	i	-3	1	-1.6
C[C@@H]1CN([C@H](C)CO)C(=O)c2cc(NC(=O)c3ccncc3)ccc2O[C@@H]1CN(C)Cc1ccccc1	i	4	21	1.3
C[C@@H]1CN([C@H](C)CO)C(=O)Cc2cc(NC(=O)Nc3ccc(F)cc3)ccc2O[C@H]1CN(C)C(=O)Nc1cccc2ccccc12	i	1	-8	0.1
O=C(N[C@H]1CC[C@H](CCNS(=O)(=O)c2ccc(Cl)cc2)O[C@H]1CO)c1cccnc1	i	-11	4	11
C[C@@H]1CCCCO[C@@H](CN(C)C(=O)CCCN(C)C)[C@@H](C)CN([C@H](C)CO)C(=O)c2cc(NC(=O)CCCN(C)C)ccc2O1	i	2	4	-2.1
COCC(=O)Nc1ccc2c(c1)C(=O)N(C)[C@H]1CC[C@@H](CC(=O)NC3Cc4ccccc4C3)O[C@H]1CO2	i	4	12	-0.8
C[C@@H]1CN([C@@H](C)CO)S(=O)(=O)c2ccc(-c3cccnc3)cc2O[C@H]1CN(C)C	i	3	7	-3.0

Part of the list above, reformatted:
O=C(N[C@H]1CC[C@H](CCNS(=O)(=O)c2ccc(Cl)cc2)O[C@H]1CO)c1cccnc1
  FGF22 binding: i
  Ecoli rRNA inh: -11
  Ecoli rRNA inh OD600: 4
  Ecoli rRNA inh RFP: 11
O=C(C[C@H]1C[C@@H]2c3cc(NS(=O)(=O)c4ccccc4)ccc3O[C@@H]2[C@@H](CO)O1)NC1CCCCC1
  FGF22 binding: i
  Ecoli rRNA inh: -2
  Ecoli rRNA inh OD600: -13
  Ecoli rRNA inh RFP: -0.3

(list continues)
SMILES	FGF22 binding	Ecoli rRNA inh	Ecoli rRNA inh OD600	Ecoli rRNA inh RFP
Cc1ccccc1-c1cnc2c(c1)C(=O)N([C@H](C)CO)C[C@@H](C)[C@H](CN(C)C(=O)CN(C)C)O2	i	3	7	-0.2
C[C@H]1CN([C@@H](C)CO)S(=O)(=O)c2ccc(C#Cc3ccc(F)cc3)cc2O[C@H]1CN(C)C(=O)NC1CCCCC1	i	0	7	-3.3
O=C(C[C@@H]1C[C@H]2c3cc(NC(=O)Nc4ccc(C(F)(F)F)cc4)ccc3O[C@H]2[C@H](CO)O1)NC1CCCCC1	i	-17	-56	32
O=C([C@@H]1[C@@H](CO)[C@@H]2Cn3c(ccc(/C=C/c4ccccc4)c3=O)[C@@H]2N1CC1CC1)N1CCCCC1	i	-3	-8	8.9
C[C@H](CO)N1C[C@H](C)[C@@H](CN(C)C(=O)Nc2ccc(C(F)(F)F)cc2)Oc2ccc(NC(=O)CCCCCC(=O)Nc3ccccc3N)cc2CC1=O	i	-2	-2	-0.9
COc1cccc(C(=O)Nc2ccc3c(c2)C(=O)N(C)C[C@@H](OC)[C@@H](C)CN(C)[C@H](C)CO3)c1	i	0	-4	1.0
COc1ccc2c3c(n(C)c2c1)[C@@H](CO)NCC31CCN(Cc2ccccc2Cl)CC1	i	1	-10	5.0
Cc1nn(C)cc1NC(=O)C[C@@H]1CC[C@H]2[C@@H](COc3ccc(NC(=O)C(C)C)cc3C(=O)N2C)O1	i	2	2	-2.9
C[C@@H]1CCCCO[C@H](CN(C)S(=O)(=O)c2ccccc2)[C@@H](C)CN([C@H](C)CO)C(=O)c2cc(NS(=O)(=O)c3cn(C)cn3)ccc2O1	i	0	8	-3.7
C[C@@H]1CN([C@@H](C)CO)C(=O)c2cc(NC(=O)Nc3cccc4ccccc34)ccc2O[C@H]1CN(C)Cc1ccc(Cl)c(Cl)c1	i	1	2	0.6
Cc1noc(C)c1NC(=O)N(C)C[C@@H]1Oc2ccc(NC(=O)Cc3ccccc3)cc2CC(=O)N([C@H](C)CO)C[C@@H]1C	i	3	0	-0.6
Cc1noc(C)c1NC(=O)N(C)C[C@H]1Oc2ccc(NC(=O)NC3CCCCC3)cc2C(=O)N([C@@H](C)CO)C[C@@H]1C	i	-4	7	-1.2
O=C(C[C@H]1C[C@@H]2c3cc(NC(=O)C4CCC4)ccc3O[C@@H]2[C@H](CO)O1)NCCN1CCCCC1	i	1	1	-1.3
C[C@H](CO)N1C[C@H](C)[C@H](CN(C)S(C)(=O)=O)Oc2ccc(NC(=O)CCN3CCOCC3)cc2CC1=O	i	2	7	-2.8
CCOC(=O)C1=CC[C@@H](c2ccccc2)C(C#N)(C#N)[C@H]1/C=C/c1ccccc1	i	4	12	2.3
Cc1noc(C)c1NC(=O)N[C@@H]1CC[C@@H](CC(=O)Nc2ccc(-c3ccccc3)cc2)O[C@H]1CO	i	-8	-2	-2.4
C[C@H](CO)N1C[C@H](C)[C@H](CN(C)C)Oc2cc(C#CCC3CCCC3)ccc2S1(=O)=O	i	2	-3	2.1
COCC(=O)Nc1ccc2c(c1)C(=O)N(C)C[C@H](OC)[C@@H](C)CN(Cc1ccncc1)[C@@H](C)CO2	i	4	2	-1.1
COc1ccc2c3c([nH]c2c1)[C@H](CO)N(C(=O)C1CCC1)CC31CCN(C(=O)c2ccccn2)CC1	i	-1	-2	0.5
O=C(Nc1cc(F)ccc1F)N[C@H]1C=C[C@@H](CC(=O)N2CCc3ccccc3C2)O[C@H]1CO	i	-4	-10	2.6
CCCN(C)C[C@H]1Oc2cc(Br)ccc2S(=O)(=O)N([C@H](C)CO)C[C@H]1C	i	6	3	1.3
CN1C(=O)c2cc(NC(=O)C3CCOCC3)ccc2OC[C@H]2O[C@@H](CC(=O)O)CC[C@@H]21	i	-2	-5	-3.7
O=C(c1cccc(F)c1)N1CC2(C1)[C@H](c1ccccc1)[C@@H](CO)N2C(=O)C1CCOCC1	i	-2	-2	-0.3
CN1CCN(C(=O)C[C@@H]2C[C@@H]3c4cc(NC(=O)CC5CC5)ccc4O[C@@H]3[C@H](CO)O2)CC1	i	2	2	-0.5
COc1cccc(S(=O)(=O)N[C@@H]2CC[C@H](CCn3cc(-c4ccccc4OC)nn3)O[C@H]2CO)c1	i	-4	-9	-2.1
Cc1cc(C(=O)Nc2cccc3c2O[C@@H](CN(C)S(=O)(=O)c2ccc(F)cc2)[C@@H](C)CN([C@@H](C)CO)C3=O)n(C)n1	i	-7	-2	0.5
C[C@H](CO)N1C[C@H](C)[C@H](CN(C)CC2CC2)Oc2ccc(NC(=O)CCCN(C)C)cc2C1=O	i	-1	-13	-2.2
Cc1ccc(S(=O)(=O)N[C@H]2CC[C@H](CCNC(=O)C3CCCC3)O[C@@H]2CO)cc1	i	4	13	-0.1
COc1ccc(C(C)(C)C)cc1NC(=O)OC[C@@H]1CSCCS(=O)(=O)N1	i	-1	-14	-1.6
CCCN(C)C[C@@H]1OCCCC[C@@H](C)Oc2ccc(NC(=O)C3CCCCC3)cc2C(=O)N([C@@H](C)CO)C[C@@H]1C	i	4	3	-2.1
C[C@H](CO)N1C[C@H](C)[C@H](CN(C)Cc2ccncc2)Oc2cc(C#CCN(C)C)ccc2S1(=O)=O	i	2	7	-0.7
O=C(C[C@@H]1C=C[C@@H](NC(=O)CCN2CCCCC2)[C@H](CO)O1)Nc1ccc(-c2ccccc2)cc1	i	-2	-3	1.9
C[C@@H]1CN([C@H](C)CO)C(=O)c2cccc(NC(=O)C3CC3)c2O[C@@H]1CN(C)Cc1ccccc1	i	5	1	-2.3
CN1CCN(C(=O)C[C@H]2CC[C@H]3[C@@H](COC[C@@H](O)CN3S(=O)(=O)c3cccc(F)c3)O2)CC1	i	6	11	-1.4
CCNC(=O)C[C@H]1CC[C@H]2[C@H](COc3ccc(NC(=O)c4cccc(OC)c4)cc3C(=O)N2C)O1	i	3	20	-2.1
COc1ccccc1C#Cc1ccc([C@H]2[C@@H](CO)N3CCCCN(C(=O)C4CCC4)C[C@H]23)cc1	i	-57	-81	-18
Cc1cc(C(=O)Nc2cccc3c2O[C@@H](CN(C)Cc2ccccc2)[C@@H](C)CN([C@@H](C)CO)C3=O)n(C)n1	i	-1	4	2.3
O=C(C[C@H]1C[C@H]2c3cc(NC(=O)c4ccc5c(c4)OCO5)ccc3O[C@H]2[C@H](CO)O1)NCc1ccc(Cl)cc1	i	-5	-12	1.8
CCNC(=O)C[C@@H]1CC[C@@H]2[C@H](COc3ccc(NC(=O)Nc4ccccc4C)cc3C(=O)N2C)O1	i	0	-3	-4.0
CCOC(=O)N(C)C[C@H]1OCc2cn(nn2)CCCC(=O)N([C@@H](C)CO)C[C@H]1C	i	1	0	1.7

Screening results: PubChem, Broad Institute

A portion of the library; the hit share may differ from the screen's.
